HPGD block: blocks human HPGD enzyme activity | purified HPGD, NADH fluorescence kinetic, PGE2 substrate | Potency, µM, inactives show at the highest dose activity change, negative = inhibition, hits mostly inhibitors | AID 894 | P15428 | actives 4.3% (n = 150,000); active = well fitted inhibition curve with a large enough effect (not every such curve was filed as active); inconclusive = small, poorly fitted or top-dose-only effect, or another doubt; inactive = no such curve, though single readings can be large or run the other way;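 note: top concentration of the series not given in the record; plate controls included wells without enzyme; inactives centre near -10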
Target sequence (P15428 whole entry, looked up): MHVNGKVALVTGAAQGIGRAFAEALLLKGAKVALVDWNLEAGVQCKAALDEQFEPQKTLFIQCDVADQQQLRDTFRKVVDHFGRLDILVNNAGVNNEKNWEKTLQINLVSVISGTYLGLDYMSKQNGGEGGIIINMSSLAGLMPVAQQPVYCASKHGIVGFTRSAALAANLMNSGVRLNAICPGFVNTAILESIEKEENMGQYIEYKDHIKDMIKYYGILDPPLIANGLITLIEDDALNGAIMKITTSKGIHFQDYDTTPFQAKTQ
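NADH formation kinetics: reaction with 30 uM PGE2 and 1 mM NAD+ (final), 20 nM enzyme, Tris-HCl pH 8 with Tween 20, after 15 min compound preincubation at room temperature. Fluorescence change, last versus first of five reads.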
The depositor's hits bear a star; ? = inconclusive; & = joins results of further samples. % is set by controls: 0 for no effect and ±100 for the full control effect; potency is the fitted concentration of half-maximal effect.

Sample of the layout:
Molecule	HPGD block
c1csc(-c2csc3nc(CN4CCOCC4)nc(NCc4ccc5c(c4)OCO5)c23)c1	-13%
Fc1ccc(Br)cc1C1C=C(c2ccc(Br)s2)Nc2ncnn21 (centres undefined)	-30%
COC(=O)c1ccc(CNC(=O)COC(=O)C23CC4CC(CC(C4)C2)C3)cc1	-9%
O=c1[nH]nc(Sc2ncnc3sccc23)n1CCc1ccccc1	-10%

Main list (from the top)
Molecule	HPGD block
c1csc(-c2csc3nc(CN4CCOCC4)nc(NCc4ccc5c(c4)OCO5)c23)c1	-13%
Fc1ccc(Br)cc1C1C=C(c2ccc(Br)s2)Nc2ncnn21 (centres undefined)	-30%
COC(=O)c1ccc(CNC(=O)COC(=O)C23CC4CC(CC(C4)C2)C3)cc1	-9%
O=c1[nH]nc(Sc2ncnc3sccc23)n1CCc1ccccc1	-10%
N#CC(C#N)=C(Nc1ccc(F)cc1)SCc1cccc(F)c1	-6%
CN1CCc2nc(SCCOc3ccccc3)c(C#N)cc2C1	-23%
CCCc1cc(=O)oc2cc(OCC(=O)Nc3cc(C)on3)ccc12	?
CCN1CCN(CC(O)COc2ccc(C(C)=O)cc2)CC1 (centres undefined)	-4%
Cc1ccccc1-c1ccccc1N	-8%
Cc1ccc(CN2CCN(/N=C/c3ccc(C)s3)CC2)cc1	-11%
COC(=O)c1ccc(NC(=O)C2CCCN2S(=O)(=O)c2ccc(OC)cc2)cc1 (centres undefined)	-4%
COc1cc(C2c3c(oc4ccccc4c3=O)C(=O)N2c2ccc(C)cn2)ccc1O (centres undefined)	-2%
CCc1cc2ccccc2nc1SCC(=O)N1CCN(C(=O)c2ccco2)CC1	-13%
COc1ccc(NC(=O)CN(Cc2ccccc2)S(C)(=O)=O)cc1	-3%
CCOc1ccccc1NC(=O)c1ccc(OCC)c([N+](=O)[O-])c1	3%
N#CC1=C(N)Oc2c(ccc3ccccc23)C1c1ccsc1 (centres undefined)	-10%
COc1ccc(F)cc1S(=O)(=O)NC1CCCCCC1	-8%
CCC(C)NC(=S)Nc1ccccc1OC (centres undefined)	-10%
COc1ccccc1N1CCN(C(=O)c2ccc(N3CCCC3=O)cc2)CC1	-8%
O=C(NCCc1c[nH]c2ccccc12)/C(=C\c1ccco1)NC(=O)c1ccco1	-6%
CCOC(=O)N1CCC(NS(=O)(=O)c2cc3c(cc2C)NC(=O)CO3)CC1	-12%
N#Cc1c(N2CCCCC2)nc(N)c2c(N)nc3c(c12)CC(c1ccccc1)O3 (centres undefined)	?
Cn1c(CO)cnc1SCc1ccc(Cl)cc1	-2%
CCn1c(-c2cccc(Br)c2)n[nH]c1=S	-20%
COc1ccc(C(=O)Cc2cc(OC)c(OC)cc2[N+](=O)[O-])c(OC)c1	-10%
CC(=O)N1N=C(c2ccccc2)CC1c1cn(C)c2ccccc12 (centres undefined)	-9%
CN(C(=O)COC(=O)c1cc(Br)c(Br)s1)C1CCS(=O)(=O)C1 (centres undefined)	-10%
C=CCOc1ccc2oc(=O)cc(C)c2c1	?
CC1(C)C2CCC1(C)C(OCC[N+](C)(C)CC(=O)OC1CCCCC1)C2 (centres undefined)	-2%
COc1cc(CNCCc2ccc(S(N)(=O)=O)cc2)ccc1OCC(=O)N1CCCCC1	-6%

Molecule	HPGD block
Nc1nnnn1/N=C/c1cccs1	0%
COc1cccc(-c2cncnc2NCCc2cnc[nH]2)c1	-12%
O=C(CCCC(=O)OCC(F)(F)C(F)F)Nc1ccc(NC(=O)CCCC(=O)OCC(F)(F)C(F)F)cc1	-9%
CCOC(=O)c1sc(-c2ccccc2)cc1NC(=O)CSc1nnnn1C	?
COc1cc2nc(/C=C/c3ccc(N(C)C)cc3)sc2cc1SC	-21%
COC(=O)c1sc(NC(=S)NC(=O)c2ccccc2)nc1C	-7%
CSc1cccc(NC(=O)c2nnn(Cc3ccccc3)c2N)c1	-9%
CC[C@H](C)[C@@H](NC(=O)O[C@@H]1C(=O)c2cc(Br)ccc2O[C@H]1c1cccc(OC)c1)C(=O)OC	-11%&-16%
O=C(Nc1ccccc1)C1(c2ccccc2)CC1(Cl)Cl (centres undefined)	-14%
O=C(CSc1nc2c([nH]c3ccccc32)c(=O)n1-c1ccccc1)N1CCOCC1	-14%
COc1ccc(C2=NOC(C(=O)NCc3ccco3)C2)cc1 (centres undefined)	?
CCN(CCO)C(=O)CC(c1ccccc1)c1cc(Br)ccc1O (centres undefined)	-20%
O=P(CO)(Cc1ccccc1)Cc1ccccc1	16µM*
COCCn1c(CN(Cc2ccccc2)Cc2ccccc2)nc2c1c(=O)n(C)c(=O)n2C	-26%
Cc1ccc(CN2C(=O)/C(=C3\SC(N4CCOCC4)=NC3=O)c3cc(Br)ccc32)cc1	-13%
Cc1ccccc1NC(=O)/C(C#N)=C\c1ccsc1	-4%
CC(C)NS(=O)(=O)c1ccc(OCC(=O)Nc2cccc3ccccc23)cc1	-9%
O=C(Cn1cnc2c(nnn2-c2ccccc2)c1=O)NCc1ccco1	-21%
CC(O)CNc1nc2ccccc2n1-c1ncnc2sc3c(c12)CCC3 (centres undefined)	-11%
CCOc1ccc(S(=O)(=O)N(CC(=O)Nc2cc(C)on2)Cc2ccccc2Cl)cc1	-6%
CC1=CC(C)(C)N(C(=O)C(C)N2C(=O)c3ccccc3C2=O)c2c(C)cc(C)cc21 (centres undefined)	-7%
O=C(CN1CCC2(CC1)OCCO2)c1c[nH]c2ccccc12	-1%
CC1=C(C#N)C(NC(=O)c2ccco2)(C(F)(F)F)C(=O)N1 (centres undefined)	-12%
CCOC(=O)c1ccccc1NC(=O)CN(c1ccccc1OC)S(C)(=O)=O	-13%
O=C(Nc1sc2c(c1C(=O)NC1CC1)CCCCCC2)c1ccco1	?
NC(=NC(=O)c1ccccc1)C1=C(O)CCC1=O	-13%
Cc1nc(NCc2ccccc2)c2nc(-c3ccccc3)n(CCCN3CCCCC3C)c2n1 (centres undefined)	?
COC(=O)C1=C(C(=O)OC)[C@@H]2N(Cc3ccccc3)c3ccccc3[C@@]23C[C@@H](C(=O)OC)N(C(C)=O)C3=N1	0%
O=S(=O)(c1cccc(NC(=S)N2CCN(c3ccccc3F)CC2)c1)C(F)F	-7%
Cn1c(=O)c2c(ncn2Cc2ccccc2)n(C)c1=O	-4%

Molecule	HPGD block
COC(=O)c1ccc(C)c(NC(=O)CCNC(=O)c2ccc([N+](=O)[O-])cc2)c1	-11%
N#Cc1c(/N=C/N2CCOCC2)sc2c1CCCCC2	-19%
Cc1ccc(C)c2[nH]c(=O)c(CCNC(=O)c3ccc(S(=O)(=O)N(C)C)cc3)cc12	-5%
CC(CCc1ccccc1)NC(=O)c1cccnc1 (centres undefined)	-8%
CC(C)CC(COCc1cccc(C(F)(F)F)c1)N1CCN(C(=O)c2cccc(C(F)(F)F)c2)CCC1=O (centres undefined)	-13%
Cn1cc(CC(=O)NCCCN2CCCC2)c2ccccc21	-4%
Cc1nnsc1NC(=O)OCc1ccc(Cl)cc1Cl	-7%
O=C(COC(=O)/C=C/c1ccc(Cl)cc1Cl)NCCC1=CCCCC1	-16%
CCC1(C)Nc2ccccc2C(=O)N1O (centres undefined)	25µM*
COc1cccc(OCCN2CCN(c3ncnc4c3cnn4-c3ccccc3)CC2)c1	?
Cc1noc(C)c1COc1ccc(C(=O)OCC(=O)Nc2ccc3c(c2)OCO3)cc1	-4%
CCN(CC)S(=O)(=O)c1ccc(Cl)c(C(=O)Nc2cc(C)nn2-c2ccccc2)c1	-10%
COc1ccc(OC)c(C2=Nn3c(nnc3-c3cc(OC)c(OC)c(OC)c3)SC2)c1	-28%
CCc1sc(N(C(=O)Cc2ccccc2)c2cccc(F)c2)nc1-c1ccc(C)cc1	-10%
CC1CCN(Cc2c(O)ccc3c(=O)c(-c4nc5ccccc5s4)c(N)oc23)CC1	?
CC(=O)Nc1ccc2[nH]c(C)cc(=O)c2c1	?
CC(=O)OCC(CCn1cnc2cnc(N)nc21)COC(C)=O	?
CCOC(=O)N1CCC(NS(=O)(=O)c2ccc3c(c2)oc(=O)n3C)CC1	-9%
COc1ccc(CCN(Cc2cc3cc(C)cc(C)c3nc2Cl)C(=O)C2CC2)cc1	-12%
COC(=O)c1cccc(CSc2nnc(-c3ccco3)n2-c2ccccc2)c1	-4%
CCCCN(CCCC)Cc1cc2ccccc2c2c1COC2	-12%
Cc1ccnc(N2CCN(C(=O)CSc3nc4ccccc4nc3N3CCCCC3)CC2)c1	-22%
CC(C)c1ccccc1NC(=S)NC1CCN(Cc2ccccc2)CC1	0%
Cc1ccc(S(=O)(=O)N2CCCN(S(=O)(=O)C3CCS(=O)(=O)C3)CC2)cc1 (centres undefined)	0%
COC(=O)C1CCN(C(=O)Nc2ccc(OC)cc2)CC1	1%
C=CCn1c(Cc2cccs2)nnc1SCC(=O)c1ccc(F)cc1	-19%
CCCC[C@@H]1C[C@H]1C(NC(=O)c1cccnc1)c1ccc(Cl)cc1 (some centres undefined)	-27%
O=C(COC(=O)CC(c1ccccc1)c1ccccc1)NCc1ccc(Cl)cc1	-29%
C=CCSc1nnnn1-c1ccc(OC)cc1	5%
COC(=O)[C@@H]1C[C@@]2(O)[C@@H](O)[C@@H](O)[C@@H](O)C[C@H]2N1Cc1ccc(C(C)(C)C)cc1	-11%

Three entries from above, arranged by length of the SMILES, falling.
Molecule	HPGD block
CCCCN(CCCC)Cc1cc2ccccc2c2c1COC2	-12%
Cc1nnsc1NC(=O)OCc1ccc(Cl)cc1Cl	-7%
C=CCSc1nnnn1-c1ccc(OC)cc1	5%

Additional records.
Molecule	HPGD block
Cc1ccc2c(c1)CC[C@H]1CC(=O)CC[C@@]21C	-1%
CCOC(=O)C1CCC(CNCc2ccc(Cl)cc2)CC1 (centres undefined)	-10%
O=C1c2ccccc2C(=O)N1CCCSc1ccccc1	-11%
O=C(CSc1nc2ccccc2c(=O)n1-c1ccc(F)cc1)Nc1cc(S(=O)(=O)N2CCOCC2)ccc1Cl	-6%
Cc1ccc2[nH]c(=O)c(CN(CCCO)S(=O)(=O)c3cccc4nsnc34)cc2c1	1%
O=C(NCCN1CCOCC1)Nc1ccc(Cl)cc1	-1%
CC(=O)OC1CC2C(C)(C)C(=O)C3OC3[C@]2(C)C2CC[C@@]3(C)C(c4ccoc4)OC(=O)C4OC43[C@]12C (some centres undefined)	0%
COCCNc1ncnc2ccc(-c3ccccc3CN(C)C)cc12	-9%
CCCCn1nnc(NC(=O)CCC)n1	-7%
O=C(COc1ccc(S(=O)(=O)N2CCCC2)cc1Cl)NCc1ccco1	-5%
O=C(CSc1nnc(-c2ccncc2)n1Cc1ccco1)N1c2ccccc2Sc2ccc(Cl)cc21	-18%
Cn1c(=O)[nH]c(=O)c2c1nc(N1CCN(c3cccc(Cl)c3)CC1)n2CCCc1ccccc1	-14%
COC(=O)CSc1nnc(-c2ccco2)n1Cc1ccco1	-20%
O=C(CC(=O)c1ccccc1)Nc1ccc2c(c1)OCCO2	-16%
CC(C)OC(=O)c1c(NC(=O)c2cnn3c2NC(c2ccccc2)CC3C(F)(F)F)sc2c1CCCC2 (centres undefined)	?
COc1ccc(/C=C/C(=O)O/N=C(\N)c2ccccc2)cc1OC	-29%
Cc1cc(C)n(-c2nc3c(c(=O)[nH]c(=O)n3C)n2Cc2ccccc2)n1	-27%
Cc1ccc(NC(=O)/C=C\C(=O)O)c([N+](=O)[O-])c1	-7%
COc1ccccc1N1CCN(C(=O)c2ccncc2)CC1	-5%
Cc1c(Cl)cccc1NC(=S)N1CCOCC1	-8%
Cc1ccc(C)c(N2CCN(C(=O)C3CCN(c4nc(C)cc(C)n4)CC3)CC2)c1	-14%
Cc1cc(C)n(-c2cc(Oc3ccccc3)ncn2)n1	-6%
O=C(Nc1cccc(-c2nc3ccccc3[nH]2)c1)c1ccco1	-15%
CCOC(=O)c1ccc(CC2S/C(=C(\C#N)C(C)=O)NC2=O)cc1 (centres undefined)	14µM*
C=CCN(C#N)c1nc(OC)nc(N2CCCC2)n1	-5%
CCn1c(SCC(=O)N2CCCCC2)nc(O)cc1=O	0.28µM*
Cc1occc1C(=O)NN=C1C2CC3CC(C2)CC1C3	-7%
CCN(CCNC(=O)CC1Oc2ccccc2NC1=O)c1ccccc1 (centres undefined)	0%
C=CCN1C(c2ccccc2)=CS/C1=C(/C#N)c1nnc(N2CCOCC2)n1-c1ccccc1	-29%
CC(=O)c1cccc(NC(=O)C2CC(=O)N(Cc3ccccc3)C2)c1 (centres undefined)	1%

Quoted from the listing:
HPGD block with C=CCN1C(c2ccccc2)=CS/C1=C(/C#N)c1nnc(N2CCOCC2)n1-c1ccccc1 stands at -29%
HPGD block with Cc1ccc(C)c(N2CCN(C(=O)C3CCN(c4nc(C)cc(C)n4)CC3)CC2)c1 stands at -14%

(continued)
Molecule	HPGD block
Nc1cc(-c2ccc(Cl)cc2)nn1S(=O)(=O)c1ccccc1	-12%
Cc1ccc(OC(=O)C2c3ccccc3Oc3ccccc32)cc1C	-15%
CCOC(=O)c1cnn(-c2nc(-c3ccc(F)cc3)cs2)c1C(F)(F)F	?
CCC(C(=O)OCC(=O)Nc1ccc(Cl)c(S(=O)(=O)N(C)C)c1)c1ccccc1 (centres undefined)	-6%
Cc1cccc(NC(=S)NCc2cccn2C)c1	-18%
Cn1c(C(=O)N2CCC(C(=O)N3CCOCC3)CC2)cc2sccc21	-9%
O=C(CSc1nnnn1-c1ccc(O)cc1)Nc1ccc(N2CCOCC2)c(Cl)c1	-25%

High-throughput results as filed in PubChem BioAssay.

Some of the compounds tested, so the mix of outcomes need not match the whole.
